# Source: PubChem BioAssay (several laboratories)
# FGF22 binding – FGF22 (human) thermal shift binding | Q9HCT0 | recombinant FGF22 thermal shift, SYPRO orange fluorescence; percent of sucrose octasulfate shift, DMSO zero | calls only at 9.99 µM | 1.5% of 340,000 active;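 active = melting point raised past a set limit in the mean and every replicate; three in four hits are not shown here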
# rRNA inh HTS – inhibitors of bacterial rRNA selective over humanized ribosomes; 1.6% of 350,000 active; AID 720706; GFP signal change (wild-type ribosome), % (concentration not given with the values); E. coli WT GFP vs humanized-ribosome RFP mutants, fluorescence, 24 h; hits give low values; DMSO median 0, no signal -100;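 active = significant combined selectivity score with lowered wild-type GFP, culture density cut under 30%, mutant RFP and density less affected; inactive = any of these conditions unmet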; also: one replicate is shown; some compounds called inactive have numbers as strong as hits
# HNF4A DNA FP – change in binding of human HNF4 alpha to DNA; P41235; activity change, % at 10 µM; HNF4a-FITC DNA binding, fluorescence polarization, 1 h; 0.3% of 360,000 active; in the data active = activity change above about 30%, passing the limit was not always enough;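 also: controls were the assay level and a saturating level of protein; the project sought stronger binding though the title names inhibitors; some compounds called inactive have numbers as strong as hits; positive values seem to mean higher polarization but the record does not say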
# Beta2AR agonist – activates human beta-2 adrenergic receptor causing internalization | Am2.2-beta2AR cells, FAP receptor internalization, flow cytometry; reference of the scale not given here | response, % (concentration not given with the values) | 0.43% of 340,000 active;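 active = response above a set limit, near 3 SD of response in nonfluorescent compounds, cut at about 42% in these data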;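 also: stock transfer was 100 nL into about 11 µL; a reference agonist was the positive control; negative values mostly stem from fluorescent compounds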
# Target sequence (P07550 whole entry, looked up): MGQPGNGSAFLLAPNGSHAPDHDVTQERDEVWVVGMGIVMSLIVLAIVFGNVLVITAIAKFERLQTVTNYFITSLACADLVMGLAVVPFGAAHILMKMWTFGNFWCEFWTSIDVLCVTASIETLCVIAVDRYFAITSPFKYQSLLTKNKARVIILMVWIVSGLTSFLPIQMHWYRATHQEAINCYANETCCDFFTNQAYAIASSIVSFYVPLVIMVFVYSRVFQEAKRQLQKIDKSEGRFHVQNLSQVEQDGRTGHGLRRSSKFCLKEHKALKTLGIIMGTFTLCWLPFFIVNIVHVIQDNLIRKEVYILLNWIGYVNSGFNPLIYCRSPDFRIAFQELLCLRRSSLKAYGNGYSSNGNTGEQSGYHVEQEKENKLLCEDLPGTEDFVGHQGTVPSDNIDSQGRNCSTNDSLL
# Ecoli growth – E. coli growth inhibition | Escherichia coli growth, OD600, 23 h; hits give low values | OD600 absorbance (no concentration beside the values) | 0.21% of 330,000 active;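 active = OD600 absorbance below the run mean of sample wells minus 3.6 SD, in any replicate, cut at about 0.56 in these data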;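 also: stock transfer was 300 nL into about 60 µL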
# UCH37 inh – blocks the human deubiquitinase UCH37. purified proteasome/UCH37, Ub-AMC cleavage fluorescence. 0.33% of 330,000 active. AID 588478. Q9Y5K5. inhibition, % (concentration not given with the values);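 active = mean of two replicates above 20%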;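 also: 0% = compound-free wells with enzyme and 100% = wells lacking proteasome; stock transfer was 100 nL into about 20 µL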
# Target sequence (Q9Y5K5 whole entry, looked up): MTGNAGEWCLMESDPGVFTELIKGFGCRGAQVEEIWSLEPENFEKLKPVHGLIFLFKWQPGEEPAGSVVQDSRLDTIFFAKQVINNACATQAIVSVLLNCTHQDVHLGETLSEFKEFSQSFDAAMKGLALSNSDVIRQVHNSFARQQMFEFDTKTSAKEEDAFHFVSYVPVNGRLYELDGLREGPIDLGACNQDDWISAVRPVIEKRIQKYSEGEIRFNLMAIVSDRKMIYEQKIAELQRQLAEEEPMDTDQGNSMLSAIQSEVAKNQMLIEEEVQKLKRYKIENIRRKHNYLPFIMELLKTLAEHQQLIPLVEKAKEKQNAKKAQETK
#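 system = Proteasome-associated human UCH37 deubiquitinase | amount = 0.15 nM proteasome as dispensed | medium = pH 7.4 Tris-HCl (50 mM) with ovalbumin, ATP-MgCl2, DTT | incubation = 30 min preincubation with enzyme, 25 min cleavage at room temperature | detection = AMC fluorescence 355/460 nm | read-out basis = percent inhibition | controls = no-proteasome and no-compound wells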
# ALR inh – inhibitors of human sulfhydryl oxidase ALR; P55789; purified ALR, DTT oxidation, H2O2 HRP-luminol luminescence; inhibition, % (no concentration beside the values); 3.8% of 290,000 active; AID 485317;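 active = mean and each replicate at 75% or more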;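 also: stock transfer was 7.5 nL into about 7.5 µL; 0% = neutral wells and 100% = wells with inactivated enzyme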
# Target sequence (P55789 whole entry, looked up): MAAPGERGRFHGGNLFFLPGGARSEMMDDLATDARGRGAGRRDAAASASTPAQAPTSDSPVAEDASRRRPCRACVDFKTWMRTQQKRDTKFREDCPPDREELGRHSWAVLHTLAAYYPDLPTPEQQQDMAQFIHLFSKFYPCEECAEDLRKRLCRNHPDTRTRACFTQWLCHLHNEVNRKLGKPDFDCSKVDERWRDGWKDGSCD
# rRNA inh HTS OD600 – further read-out of rRNA inh HTS, marked with its call; OD600 change, %; measured here: OD600 growth;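 optical density of the mix in the first replicate; 0 = DMSO median and -100 = no signal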
# rRNA inh HTS RFP – recorded beside rRNA inh HTS, whose call it bears; RFP signal change, %; measured here: RFP humanized mutant strains;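 first replicate; 0 = DMSO median and -100 = no signal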
# * = called active by the depositor; i = inactive; . = no result given. An excerpt; the hit share may differ from the screen's.
SMILES,FGF22 binding,rRNA inh HTS,rRNA inh HTS OD600,rRNA inh HTS RFP,HNF4A DNA FP,Beta2AR agonist,Ecoli growth,UCH37 inh,ALR inh
COCCCNC(=O)CN1C(=O)COc2ccc(S(=O)(=O)N3CCOCC3)cc21,i,14.4,10.7,-3.1,-3.3,10.2,0.693,1.8,-4.8
CCOc1ccc(NC(=O)C(C)SC(N)=O)cc1 (stereo unspecified),i,-7.0,-0.2,-2.0,0.6,22.3,0.665,5.6,98.9*
O=C(O)C1CCCCC1C(=O)Nc1cccc(Cl)c1Cl (stereo unspecified),.,.,.,.,-1.3,4.7,0.657,2.8,2.3
O=C(N/C(=C/c1ccccc1F)C(=O)N1CCCCC1)c1ccccc1,i,1.3,-3.0,-0.9,1.5,-6.4,0.643,0.1,7.8
Cn1cnc2ncnn2c1=S,i,8.9,16.3,0.7,-2.8,.,.,.,.
CC1Cc2ccccc2N1C(=O)c1ccc2c(c1)nnn2C (stereo unspecified),.,.,.,.,-1.2,-9.9,0.71,1.8,0.0
Cc1ccc(/C=[N+](/C)[O-])cc1,i,-4.9,0.1,1.2,-1.4,5.7,0.666,-1.1,-15.7
COc1ccc(/C(O)=C2/C(=O)C(=O)N(CCCN3CCOCC3)C2c2ccc(OC)cc2)cc1 (stereo unspecified),i,3.5,5.3,-0.7,3.9,6.4,0.727,8.2,10.5
CCOC(=O)Nc1oc2ccccc2c(=O)c1C,.,.,.,.,1.1,-12.7,0.734,-25.4,-1.2
Cc1ccc(S(=O)(=O)NC(Cc2ccccc2)C(=O)O)cc1C (stereo unspecified),i,-11.5,-16.2,0.5,2.3,-4.3,0.696,2.5,-1.2
O=C(Nc1ccncc1)c1cccc2ccccc12,i,5.2,0.4,1.5,4.0,-4.3,0.606,1.9,-19.0
Cn1c(N)c(C(=O)CSc2nc(N)cc(N)n2)c(=O)n(C)c1=O,i,13.4,10.1,0.5,-0.8,-5.7,0.624,2.8,.
COc1cc(/C=C/C(=O)Nc2nc3ccc(S(=O)(=O)N(C)C)cc3s2)cc(OC)c1OC,.,.,.,.,3.3,9.6,.,-48.7,1.8
CC(=O)OCC(=O)[C@@]1(O)CC[C@H]2[C@@H]3CCC4=CC(=O)C=C[C@]4(C)[C@H]3C(=O)C[C@@]21C,i,10.0,10.6,0.5,0.8,-1.2,0.679,4.1,6.8
COc1ccc(N2CCN(C(=O)c3ccccc3N(C)S(=O)(=O)c3ccccc3)CC2)cc1,i,-2.3,-14.2,4.6,-0.7,0.8,0.705,2.9,90.0*
C=CCOc1ccc(/C=C/C(=O)OCC(=O)NCc2cccc(OC)c2)cc1,i,3.8,4.4,2.8,-3.5,-4.6,0.682,-2.2,.
COc1ccc(Oc2nc(-c3ccncc3)nc3ccccc23)cc1,i,-14.1,-1.2,-1.7,0.2,2.9,0.678,0.5,-6.9
COC(=O)C1CCN(C(=O)COC(=O)C2CCN(S(=O)(=O)c3c(Cl)cccc3Cl)CC2)CC1,i,1.4,-2.0,-2.0,-0.3,13.2,0.625,1.0,-15.3
Cn1c(=O)c2c(nc(Sc3nc4ccccc4n3CC(=O)N3CCCCC3)n2C)n(C)c1=O,.,.,.,.,0.1,-3.3,0.728,1.5,4.1
CCCC(=O)Nc1sc(C)c(C)c1C#N,i,14.4,-1.8,-4.2,6.6,-12.2,0.697,3.8,10.7
CC1CN(c2nnnn2-c2ccccc2)CC(C)O1 (stereo unspecified),.,.,.,.,0.1,-2.4,0.659,-1.4,-2.4
COc1ccc(OC)c(N(CC(=O)NCCSC2CCCCC2)S(=O)(=O)c2ccccc2)c1,i,8.8,6.0,4.1,0.1,4.2,0.684,-1.3,-1.3
Nc1c(-c2ccccc2)c(CN2CCOCC2)nn1-c1ccc(C(=O)O)cc1,.,.,.,.,-2.0,-0.1,0.716,0.2,.
C=C(C)Cn1c(C2CC(=O)N(Cc3ccccc3)C2)nc2ccccc21 (stereo unspecified),i,-2.9,-15.2,-0.4,2.5,-6.0,0.707,6.3,-3.2
CC1CN(C(=O)/C=C/c2ccc3c(c2)OCO3)CC(C)O1 (stereo unspecified),.,.,.,.,2.0,5.0,0.649,-40.9,-1.5
COc1ccc2[nH]cc(C(=O)CN3CCN(C4CCCCC4)CC3)c2c1,.,.,.,.,-1.7,14.4,0.666,0.7,-8.6
Cc1cccc(NC(=O)CN(CC2CCCO2)C(=O)c2oc3ccc(F)cc3c2C)c1C (stereo unspecified),i,-9.1,-51.0,1.6,0.4,-8.0,0.66,-1.5,.
CC(C)NC(=O)NC(=O)CSc1nnc(-c2ccccc2F)n1N,i,24.6,16.0,-5.8,-4.9,-6.6,0.699,2.8,-4.7
OC1(c2cccnc2)CCN(Cc2nnnn2C2CCCCC2)CC1,.,.,.,.,0.2,1.5,0.715,1.1,6.5
CN(C)c1nc(OCCNC(=O)Nc2ccccc2)nc(N2CCCCC2)n1,i,-0.9,-3.5,-0.7,-0.5,4.0,0.726,4.8,.
COc1ccc2cc(-c3cc(C(=O)OCC(=O)NC4CCS(=O)(=O)C4)c4ccccc4n3)ccc2c1 (stereo unspecified),.,.,.,.,1.5,7.8,0.706,i,.
O=C(NC1CCCC1)C(c1ccc(O)cc1)N(CC1CCCO1)C(=O)C1COc2ccccc2O1 (stereo unspecified),i,-8.7,-8.1,4.7,-0.3,0.4,0.716,1.3,-11.6
Cc1ccc(Nc2nc(C)cc(C)c2C(N)=O)cc1,.,.,.,.,-2.1,2.3,0.654,5.5,25.6
Cc1sc2nc(SCC(=O)Nc3ccccc3F)[nH]c(=O)c2c1C,i,2.7,6.4,-2.3,-0.2,1.5,0.662,-0.3,-16.8
COc1ccc(S(=O)(=O)N2CCC(C(=O)NCc3ccncc3)CC2)cc1,i,6.3,8.7,-1.3,0.3,-7.5,0.669,1.9,-1.1
CCN(CC)S(=O)(=O)c1ccc(-c2nnc(SCc3nnc(-c4ccc(C)cc4)o3)n2CC)cc1,.,.,.,.,-1.2,-0.9,0.695,2.8,-12.4
CN(Cc1ccc(F)cc1)S(=O)(=O)c1ccc2[nH]c(=O)[nH]c2c1,i,4.8,3.2,0.0,0.4,.,.,.,.
O=CNc1cc(-c2ccc(C(=O)NC3CC3)cc2)cn2c(-c3ccccc3)cnc12,i,-5.4,-2.3,0.9,8.2,.,.,.,.
N#Cc1ccc(OCCN2CCc3ccccc3C2)cc1,.,13.7,14.2,0.2,8.5,-3.8,0.608,3.1,-3.6
CCCCCCc1ccc(N2C[C@H](C)[C@@H](CC(=O)NCc3ccccc3)C2=O)cc1,i,3.4,3.8,3.8,-3.2,0.6,.,1.6,1.3
CCOC(=O)N1CCC(NC(=O)C2=CCN(S(=O)(=O)c3ccc(F)cc3)CC2)CC1,i,10.6,9.7,0.1,-0.9,-7.3,0.684,1.2,7.9
Cc1ccc(NC(=O)CN2CCc3ccccc3C2)cc1F,i,-6.8,-7.8,-8.4,4.7,-4.7,0.635,5.9,-0.5
COc1ccc(CN2C[C@@H](CO)O[C@@H](n3cnc4c(N(C)C)ncnc43)C2)cc1,i,4.6,11.6,0.8,0.0,.,.,.,.
CC(=O)NCCCc1nc2ccccc2n1Cc1ccccc1F,i,-0.6,6.5,-5.1,-4.2,0.2,0.649,4.9,.
CCc1cccc(CC)c1NC(=O)CN1CCN(S(=O)(=O)c2ccccc2)CC1,i,.,.,.,0.1,-0.8,0.712,0.3,-1.5
Cn1c(Cn2c(=O)sc3ccccc32)nnc1SCC(=O)NC1CCCCC1,.,.,.,.,2.3,-4.4,0.734,1.3,-6.0
Cc1c(O)cc2c(c1O)C(=O)CC(c1ccccc1)O2 (stereo unspecified),i,-9.1,-4.4,-1.1,1.2,10.9,0.675,5.8,2.3
CN(C(=O)COC(=O)c1ccc(C(C)(C)C)cc1)C1CCS(=O)(=O)C1 (stereo unspecified),.,0.9,1.3,-3.0,-7.0,-3.0,0.673,1.3,.
N/C(COc1ccc(C(=O)O)cc1)=N\O,.,.,.,.,-1.7,-7.8,.,.,-3.7
CC1C(=O)N2CCCc3cc(NC(=O)C(=O)NCc4ccc5c(c4)OCO5)cc1c32 (stereo unspecified),i,-0.6,-4.0,-0.1,2.0,-3.2,0.685,3.2,-10.1
COC(C[C@H]1O[C@H]1[C@H](O)[C@H](C)OCc1ccccc1)OC,i,4.1,6.3,23.0,15.5,-4.5,.,2.2,.
Cc1ccc(CNC(=O)CCCC(=O)O)cc1,.,.,.,.,-3.0,2.9,0.71,3.6,5.6
C(#Cc1ccccc1)C[N+]1(CC#Cc2cccc3ccccc23)CCOCC1,.,-61.0,-82.0,-21.0,-1.4,-8.7,0.662,10.4,.
Cc1ccc(OCc2ccc(-c3ccccc3)cc2)c([N+](=O)[O-])n1,i,2.3,9.8,-2.2,-2.5,13.6,0.656,3.7,-9.4
Cc1ccc(Oc2nnc(-c3cccs3)c3ccccc23)cc1C,.,.,.,.,-5.4,-28.5,0.721,1.8,49.3
Cc1ccc(NC(=S)N2CCC(NC(=O)c3ccco3)CC2)cc1C,i,6.0,-22.7,-1.0,1.1,2.9,0.666,1.4,-31.7
CCc1nnc(NC(=O)C(CC)c2ccccc2)s1 (stereo unspecified),.,.,.,.,2.2,-3.8,0.65,-0.7,-1.7
COc1ccc(N2CCN(CCNC(=O)CCS(=O)(=O)c3cccc4nsnc34)CC2)cc1,.,.,.,.,.,.,0.714,-3.3,94.2*
CN(C)c1ccc(C=Cc2ccnc3ccccc23)cc1N,i,-51.0,-79.7,-20.3,4.8,.,.,.,.
CC1=C([N+](=O)[O-])C(c2ccccc2)C2=C(N1)c1ccccc1C2=O (stereo unspecified),.,.,.,.,3.9,13.7,0.665,8.3,-2.2

# Following part.
SMILES,FGF22 binding,rRNA inh HTS,rRNA inh HTS OD600,rRNA inh HTS RFP,HNF4A DNA FP,Beta2AR agonist,Ecoli growth,UCH37 inh,ALR inh
Cc1cccc(N2CCN(C(=O)c3cccc(S(=O)(=O)N4CCc5ccccc5C4)c3)CC2C)c1 (stereo unspecified),i,-6.0,-16.8,-8.3,8.3,7.8,0.65,3.4,0.5
O=C(NCC1CCN(Cc2ccccc2F)CC1)C1CCCN(c2ncnc3c2nc2n3CCCCC2)C1 (stereo unspecified),i,3.0,-3.2,1.0,4.5,-8.5,0.677,6.8,-2.5
Cc1c(NC(=O)CSC(=S)N2CCCC2)c(=O)n(-c2ccccc2)n1C,i,9.1,10.6,0.7,-0.8,5.4,0.68,5.9,.
COc1cc(/C=C2/C(=N)N3C(=NC2=O)SN=C3S(C)(=O)=O)ccc1OS(=O)(=O)c1ccc(C)cc1,.,-19.7,-23.8,5.5,17.0,-8.3,0.681,-0.1,54.2
COCCCn1c(=S)[nH]c2sc3c(c2c1=O)CCCC3,i,-3.5,-3.1,-0.8,2.7,6.5,.,.,52.3
COc1ccc(NC(=O)C2OC3OC(C)(C)OC3C3OC(C)(C)OC23)cc1 (stereo unspecified),.,.,.,.,5.0,8.7,0.658,0.1,-1.6
O=C(Cn1cnc2ccccc2c1=O)NCCC(=O)Nc1ccccc1C(F)(F)F,i,15.2,7.6,-0.6,-0.4,-3.1,0.69,-0.4,.
O=C(c1cc(-c2ccc(Br)cc2)on1)N1CCc2ccccc2C1,i,.,.,.,1.2,3.0,0.653,0.8,2.7
O=C(N/N=C/c1ccc(-c2ccccc2C(=O)O)o1)c1cccs1,.,.,.,.,-13.6,-5.3,.,.,7.9

# Only Beta2AR agonist, for two of the compounds above:
structure	Beta2AR agonist
Cn1c(N)c(C(=O)CSc2nc(N)cc(N)n2)c(=O)n(C)c1=O	-5.7
COc1cc(/C=C/C(=O)Nc2nc3ccc(S(=O)(=O)N(C)C)cc3s2)cc(OC)c1OC	9.6
